S aureus helic = blocks Staphylococcus aureus DNA helicase. 120,000 compounds, 0.05% hits. inhibition, %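 (tested at about 80 µM)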. AID 485395. purified S. aureus helicase, fluorescence unwinding assay; about half of the hits fall short of the stated cut;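 active = both duplicates at 50% or more, or one of them with a favoured structure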;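 also: 0% = mean of negative control wells and 100% = mean of positive control wells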
MgrA DNA FP = alters Staphylococcus aureus MgrA binding to DNA; fluorescence polarization; inhibition, %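 (about 10 µg/mL by stock and volumes)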; 84,000 compounds, 0.13% hits; AID 602314;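 active = above 50% in either of two replicates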;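 also: 0% = protein plus DNA without compound and 100% = DNA alone without protein; higher means less MgrA bound to DNA so lower polarization; one replicate is shown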
Numbers without * were called inactive; · = no result given; & = joins results of further samples.

SMILES | S aureus helic | MgrA DNA FP
O=c1c2ccc(-c3nnc(SCc4cn5ccccc5n4)o3)cc2nc2n1CCCCC2 | 43 | ·
CC(=O)Nc1cccc(Oc2nnc(-c3ccccc3)c3ccccc23)c1 | 9 | -0.2
Cn1ccsc1=NC(=O)/C=C/c1cc(Cl)c2c(c1)OCCCO2 | -1 | ·
CCOC(=O)c1cnc(C(F)(F)F)nc1Nc1ccccc1 | · | 0.5
Cc1cccc(NC(=O)c2cnn(-c3ccc(F)cc3)c2C2CCN(C(=O)OC(C)(C)C)CC2)c1C | -8 | 1.1
S=C(Nc1cccnc1)NC(c1ccccc1)c1ccccc1 | -2 | -1.2
N#C/C(=C\c1cn(-c2ccccc2)nc1-c1cc2ccccc2o1)C(N)=S | -12 | ·
C=CCc1cccc(O)c1O | -13 | -2.1
COc1cc(C=Nc2ccc(C)c(C)c2)cc(OC)c1OC | · | -1.2
Cc1ccc(NS(=O)(=O)c2cc(Cl)ccc2Cl)nc1 | 18 | -2.5
COc1ccccc1OCCSc1nc2ccccc2n1CC(O)CO (stereo not drawn) | · | -1.1
COc1ccc(/C=c2\sc3n(c2=O)C(N)=C(C#N)C(c2ccc(OC)cc2)C=3C#N)cc1 (stereo not drawn) | -42 | ·
O=C1Nc2ccc(Br)cc2C1(O)Cc1ccccn1 (stereo not drawn) | · | -0.8
CN(C)C(=O)CN(c1ccc(Cl)cc1Cl)S(C)(=O)=O | 3 | -0.2
O=C(N/N=C/c1ccc(O)cc1)c1ccccc1CO | · | -4.2

Sorted by value in MgrA DNA FP (highest first): 4 from the list above.
SMILES | S aureus helic | MgrA DNA FP
Cc1cccc(NC(=O)c2cnn(-c3ccc(F)cc3)c2C2CCN(C(=O)OC(C)(C)C)CC2)c1C | -8 | 1.1
COc1ccccc1OCCSc1nc2ccccc2n1CC(O)CO (stereo not drawn) | · | -1.1
S=C(Nc1cccnc1)NC(c1ccccc1)c1ccccc1 | -2 | -1.2
C=CCc1cccc(O)c1O | -13 | -2.1

(list continues)
SMILES | S aureus helic | MgrA DNA FP
COc1ccc(NC(=O)CS(=O)(=O)c2cn(Cc3cccc(F)c3)c3ccccc23)cc1 | 42 | ·
CC(=O)Nc1ccc(NC(=O)c2c(-c3c(Cl)cccc3Cl)noc2C)c(C)c1 | · | -0.7
Cc1nc(SCC(=O)c2ccc3c(c2)CCN3S(C)(=O)=O)n(C2CCCCC2)c1C | -1 | ·
Cn1cc(C(=O)N/N=C/c2ccc(Cl)cc2Cl)ccc1=O | 23 | -1.3
CC(C)c1cc(C(C)C)c(S(=O)(=O)NCCCN2CCOCC2)c(C(C)C)c1 | 14 | -0.9
COc1cc(Cl)c(C)cc1NC(=S)N(Cc1ccccc1C)CC1CCC(C(=O)O)CC1 (stereo not drawn) | 1 | 1.2
Cc1ccccc1N1C(=O)C=CC1=O | 5 | ·
COc1ccc(C)c2sc(=NC(=O)C3CC3)n(C)c12 | 19 | ·
N=c1oc2ccccc2cc1C(=O)Nc1ccccc1 | 2 | 0.9
CS/C(NC(=O)c1ccccc1)=C1\CCCCC1=O | -13 | ·
CC1=C(C(=O)Nc2cccc(C(F)(F)F)c2)C(c2ccccc2)C2=C(CCCC2=O)N1 (stereo not drawn) | 11 | 0.6
C=CCn1c(SCc2cccnc2)nnc1-c1ccncc1 | 8 | -0.5
CCCCn1c2ccccc2c2nnc(SCc3ccccc3)nc21 | 5 | 1.1
Cc1ccc(O)c(C=Nc2cc(C)on2)c1 | · | 2.8
O/N=C/c1ccoc1 | 13 | ·

Looked up above:
CN(C)C(=O)CN(c1ccc(Cl)cc1Cl)S(C)(=O)=O in S aureus helic has 3
C=CCc1cccc(O)c1O in S aureus helic has -13
O=c1c2ccc(-c3nnc(SCc4cn5ccccc5n4)o3)cc2nc2n1CCCCC2 in S aureus helic has 43
Cn1ccsc1=NC(=O)/C=C/c1cc(Cl)c2c(c1)OCCCO2 in S aureus helic has -1

Two of the compounds above, as tab-separated lines.
SMILES	S aureus helic	MgrA DNA FP
N=c1oc2ccccc2cc1C(=O)Nc1ccccc1	2	0.9
CS/C(NC(=O)c1ccccc1)=C1\CCCCC1=O	-13	·

(cont.)
SMILES | S aureus helic | MgrA DNA FP
CC1Cn2c(CCc3ccccc3)nnc2S1 (stereo not drawn) | 2 | -1.8
COc1cc([N+](=O)[O-])ccc1-c1ccc(/C=C2\C(=O)N(c3cccc(Br)c3)N=C2C)o1 | · | -0.3
CN(C)C(=O)Cc1coc2ccc3ccccc3c12 | 8 | 5.0
COc1ccccc1Oc1ccc(S(N)(=O)=O)cc1 | 19 | ·
N#C/C(=C/c1ccco1)c1ccc2ccccc2c1 | -12 | 12
NC1c2c(ccc3ccccc23)OCC1CO (stereo not drawn) | · | -2.6
O=C(O)c1cc(-c2cccnc2)nn1-c1cccc(C(F)(F)F)c1 | -14 | 0.8
O=S(=O)(c1ccc(CN2CCOCC2)cc1)N1CCOCC1 | · | -1.4
CC(SCc1ccco1)C(=O)O (stereo not drawn) | 7 | 5.0
O=C(CN1CCN(C/C=C/c2ccccc2)CC1)Nc1cccc(Cl)c1 | 1 | -3.2
COc1ccc(C(=O)NC(c2ccccc2)c2ccccc2)cc1 | 11 | -0.8
O=C(Nc1ccccc1N(C(=O)C1CC1)S(=O)(=O)c1cccs1)C1CC1 | -14 | ·
CCOC(=O)C(Cc1ccccc1)C(=O)N1CCN(C)CC1 (stereo not drawn) | 9 | ·
Cc1ccc(S(=O)(=O)/C=C/C#N)cc1 | -2 | -0.8
CCOCCOC(=O)C1=C(C)NC2=C(C(=O)CC(C)(C)C2)C1c1cc(Br)c(O)c(OC)c1 (stereo not drawn) | · | -0.7
O=C(N/N=C1\C2CN3CCN(C2)CC1(Cc1ccccc1)C3)c1ccc(F)cc1 | -30 | ·
Cc1ccc2oc(=O)c3cc(C(=O)NCCCN4CCCCCC4)sc3c2c1 | 36 | -2.0
CCOc1cc(C(OC(C)=O)OC(C)=O)cc(Cl)c1OC(C)=O | 9 | -1.6
CC(C)(C)C(=O)Cn1c(=O)n(CCCC(=O)NCc2ccco2)c(=O)c2sccc21 | 8 | -0.3
CSc1nccc(-c2ccc(S(=O)(=O)N3CCCCC3)s2)n1 | · | 1.2
CC1CCCCC1NC(=O)CSc1nccc(=O)[nH]1 (stereo not drawn) | -2 | -1.6
CC1CC1C(=O)OCC(=O)Nc1ccc2[nH]c(=O)[nH]c2c1 (stereo not drawn) | 9 | ·
O=C(O)CSCC(=O)Nc1cccc(C(F)(F)F)c1 | -3 | -0.3
NC(=O)c1ccsc1NC(=O)c1ccc2c(c1)CCCC2 | 12 | ·
CC1=C(c2ccccc2)S(=O)(=O)N=C1N1CCCC1 | 10 | ·
N#CC1(NC(=O)CSc2nc(N)cc(N)n2)CCCC1 | 0 | ·
CCOC(=O)/C(C#N)=C(\O)c1ccccc1 | -5 | -1.4
COC(=O)C(Cc1c[nH]c2ccccc12)NC(=O)c1c(Cl)cccc1Cl (stereo not drawn) | · | -0.7
O=C(O)CCC1CCCCCCCCCCC1 | · | 0.5
N#Cc1c(-c2ccccc2)c(-c2ccccc2)n[nH]c1=O | -37 | ·
CCSc1nc2c(c(=O)n1-c1ccccc1)SCC2 | 11 | -0.2
CC(C)CCN1C(=O)C(O)(CC(=O)c2cccc(C(F)(F)F)c2)c2ccccc21 (stereo not drawn) | 3 | -2.5
Cc1ccc(C23CC4CC(CC(C(=O)NCC(=O)O)(C4)C2)C3)cc1 | -14 | ·
Cc1cccc(C(=O)OC(C)C(=O)N2CCc3ccccc3C2)c1C (stereo not drawn) | 9 | ·
COc1cccc2cc(C(C)N(CCCN3CCOCC3)C(=S)Nc3cccc(Cl)c3C)oc12 (stereo not drawn) | 8 | ·
CCOC(=O)N1CCC(=NNc2nc(C)cc(=O)[nH]2)CC1 | 11 | ·
O=C(CSc1ccc2nnc(-c3ccncc3)n2n1)Nc1ccccc1 | 13 | ·
Cc1ccc(OCCCC(=O)Nc2nccs2)cc1 | 4 | -4.2
Cc1oc(-c2ccc(Cl)cc2)cc1C(=O)N1CCc2[nH]c3ccc(F)cc3c2C1 | -13 | ·
COc1ccc2c(Cl)c(C(=O)N(C)C3CCN(C)CC3)sc2c1 | -10 | ·
COc1ncnc2scc(C)c12 | · | 1.9
O=c1c2c(nc3cc(-c4ccccc4)[nH]n13)CCC2 | -3&6 | -2.5
CCNc1nc(NCC)n2c(SCC(=O)N3CC(C)OC(C)C3)nnc2n1 (stereo not drawn) | -12 | ·
CCOc1cc(/C=C2/C(=O)N(c3ccccc3)C(=S)N(c3ccc(C)c(C)c3)C2=O)ccc1O | 12 | -1.4
O=C(N=c1c2c3c(sc2nc2n1CCCCC2)CCCC3)c1ccc(S(=O)(=O)N2CCOCC2)cc1 | -10 | ·
CCOc1ccc(N(Cc2cc3cc(OC)ccc3[nH]c2=O)S(C)(=O)=O)cc1 | -7 | ·
COc1c(C)c2c(c(O)c1C/C=C(\C)CCC(=O)O)C(=O)OC2 | · | 0.5&2.2
O=C1Cc2cc(S(=O)(=O)NNc3ccc(C(F)(F)F)cn3)ccc2N1 | -9 | ·
CC(C)(C)NC(=O)C12CC3CC(CC(C3)C1)C2 | -37 | ·
O=C1N/C(=N/N=C/c2ccco2)SC1c1ccccc1 (stereo not drawn) | 2 | ·
FC(F)(F)c1cc(/C=C/c2noc(CN3CCCC3)n2)cc(C(F)(F)F)c1 | · | 1.5
Cc1nn(-c2ccccc2)c2sc(C(=O)OCC(=O)c3ccccc3)cc12 | 1 | ·
O=C(c1ccc(Br)cc1)c1cc2c(cc1Br)OCCCO2 | · | -1.2
Cc1ccccc1S(=O)(=O)Cc1ccc(C(=O)NC2CCCC2)o1 | 9 | 0.0
CCOC(=O)CN1Cc2cccc(C(=O)O)c2C1=O | 2 | ·
COC(=O)c1cc(S(=O)(=O)NCC2CCN(Cc3cccc(Cl)c3)CC2)c[nH]1 | 12 | ·
COc1ccc(CCNC(=O)c2ccc3c(=O)n(Cc4ccc5c(c4)OCO5)c(=O)[nH]c3c2)cc1OC | -2 | ·
Nc1ccccc1NC(=O)c1nc2ccccc2nc1C(O)C(O)CO (stereo not drawn) | 14 | -0.4
COc1ccc(OC)c(C2(O)CSC(=Nc3cccnc3)N2Cc2ccco2)c1 (stereo not drawn) | -3 | ·
O=C(Cn1cc(NC(=O)c2cc(-c3ccc(F)cc3)no2)cn1)NCc1ccco1 | 25 | ·
Going on with the list:
SMILES | S aureus helic | MgrA DNA FP
O=c1[nH]c(CSc2nnc3ccccn23)nc2ccccc12 | -9 | ·
COc1ccc(C(NC(=O)Cc2cc3ccccc3[nH]2)C(=O)Nc2ccc3c(c2)OCCO3)cc1 (stereo not drawn) | 14 | -1.1
COc1ccccc1CNC(=O)C(CC(C)C)NC(N)=O (stereo not drawn) | -18 | ·
N#C/C(=C\c1cn(Cc2ccccc2C#N)c2ccccc12)C(=O)NCc1cccs1 | -1 | -9.4
Cc1ccc2nc(SCC(=O)N3CCCCC3)c(C#N)cc2c1 | -12 | 1.9
O=C1OC(c2ccc(Br)cc2)=N/C1=C\N1CCN(c2ccc([N+](=O)[O-])cc2)CC1 | · | 2.8
Cc1c(C(=O)Nc2ccc3ccccc3c2)oc2ccccc12 | 9 | 0.0
CC1(C)OC(=O)C(=Cc2ccc(C#N)cc2)C(=O)O1 | -5 | ·
Cn1cnnc1SCc1ccc(C(=O)O)cc1 | 5 | -2.9
CCCc1nc(S(=O)(=O)c2ccc(C)cc2)c(NC)o1 | 2 | -1.9
CC(C)N(CC(N)=O)c1nc(-c2cccs2)nc2ccccc12 | 23 | ·
Cc1cc2nsnc2cc1C | · | -1.9
COC(=O)c1ccc(CSc2ccc(C(F)(F)F)cn2)o1 | · | -3.4
Cc1cc(NS(=O)(=O)c2ccc(NC(=O)c3ccco3)cc2)no1 | · | 2.2
CC(=O)Nc1nc(NC(C)=O)nc(-c2ccccn2)n1 | 10 | 0.3

Record cards, from the list above. Screens in order: S aureus helic, MgrA DNA FP
`CS/C(NC(=O)c1ccccc1)=C1\CCCCC1=O` reads -13, ·
`C=CCc1cccc(O)c1O` reads -13, -2.1

Remaining list, next part
SMILES | S aureus helic | MgrA DNA FP
CN1CCCN(Cc2ccccc2)CC1 | 12 | -1.8
Nc1scc[n+]1CC(=O)Nc1ccccc1 | 14 | -0.7
O=C1/C(=C\c2ccc(F)cc2)CN(Cc2ccccc2)C/C1=C\c1ccc(F)cc1 | 5 | -1.8
Cc1cc2[nH]c(=O)c(=O)[nH]c2cc1S(=O)(=O)N1CCCCC1 | 5 | ·
NCc1ccc(Oc2ccc(F)cc2)cc1 | 9 | ·
COc1ccccc1NC(=O)C(C)O/N=C/c1ccccc1 (stereo not drawn) | -10 | ·
CN(C)c1cc(C(F)(F)F)nc(-c2ccccn2)n1 | · | 0.6
CCNS(=O)(=O)c1ccc2c(c1)C(=O)c1cc(S(=O)(=O)NCC)ccc1-2 | 12 | 0.0
CCOC(=O)CC1Sc2ccccc2N=C1SCCS(=O)(=O)c1ccc(Cl)cc1 (stereo not drawn) | · | -0.9
NC(=O)N/N=C1\CCS(=O)(=O)c2ccc(F)cc21 | 8 | ·
CCSc1n[nH]c2nc3ccccc3n12 | 18 | 1.4
COc1cccc(OC)c1C(=O)NN1CCCCC1 | 16 | 0.7
CN1C(=O)OC(C)(C)C1=O | · | -1.1
CN1CCCN(C(=O)c2ccc3[nH]c4c(c3c2)CCCC4)CC1 | -8 | ·
O=C(O)CCC(=O)N1CCc2cc(S(=O)(=O)N(CCc3ccccc3)Cc3ccccc3)ccc21 | 7 | ·
Cc1nn(Cc2c(Cl)cccc2Cl)c(Cl)c1CN1CCN(CC(=O)N2CCCC2)CC1 | -7 | ·
CC1CN(CC(O)COc2ccc(C3CCCCC3)cc2)CC(C)O1 (stereo not drawn) | -28 | ·
CCCCOc1ccc(C2(C(=O)O)CCCC2)cc1 | 3 | -0.5

Bioassay records from PubChem.

Only part of the results is shown; the hit share may differ from the screen's.
